# Ba CapD inh: Bacillus anthracis CapD inhibitors, primary screen, biochemical, fluorescence intensity; AID 492967, 2010; CapD gamma-glutamyltranspeptidase (Bacillus anthracis Ames Ancestor); 140,000 tested, 0.23% active; z-score (no concentration beside the values); purified CapD enzyme, fluorescence intensity read-out; hits give low values; some hits fall short of the stated cut;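 active means z-score under -4 in either of two replicates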;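 further: stock transfer was 100 nL into about 40 µL; score is relative to mean and spread of the plate; one replicate is shown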
# AID504770: growth inhibition of E. coli YBA685, primary screen, V. cholerae RctB inhibitors. E. coli YBA685 rctB-dependent plasmid, OD600 growth, 3 h; hits give low values. z-score (test concentration not listed). 130,000 tested, 0.27% active;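 active means z-score under -2 on both plates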;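 further: wells of about 30 µL received 100 nL stock; score is relative to mean and SD of the test wells; the first replicate is given; strong numbers were not always called active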
# * marks the source's active call; other numbers are inactive results; / = not tested or not shown; & = joins results of further samples. The order is random. Share with any hit: about 0.41%.
SMILES,Ba CapD inh,AID504770
CC(C(=O)NCCCN1CCN(C)CC1)n1nc(-c2ccccc2)c2cc(Cl)ccc21 (stereo not given),2.8,0.35
COc1cccc(NC(=O)c2oc3ccccc3c2NC(=O)c2cccs2)c1,3.4,-0.3
O=C(COc1ncnc2sccc12)c1ccc2c(c1)OCCO2,/,-0.15
COC(=O)CN1C(c2cc(OC)c(OC)c(OC)c2)=Nc2ccc(Br)cc2C1c1ccccc1 (stereo not given),0.33,/
COc1ccc(-c2n[nH]c(C)c2-c2ccccc2)c(O)c1,/,0.35
Cc1cc(CO)cc(C)c1Br,-0.34,0.4
CNc1c(NS(=O)(=O)c2ccc(Cl)cc2)c(=O)oc2ccccc12,3,0.6
CC(NCc1cn(Cc2ccccc2)nc1-c1cccnc1)c1ccc(-n2ccnc2)cc1 (stereo not given),/,0.2
O=C(CSc1nc2c(c(=O)[nH]1)CCC2)N1CCCCCC1,0.4,-0.35
C[S+](C)c1ccccc1,/,-0.55
C=CCSC1=C(C#N)C(c2ccccc2OC)C(C#N)C(=O)N1 (stereo not given),/,-0.3
Nn1c(Cc2cccc3ccccc23)nnc1SCC(=O)N1CCCC1=O,/,0.25
CCCCn1c(C)c(C(=O)OCC)c2cc(OC(=O)C(C)(C)C)c3ccccc3c21,-0.73,/
COc1cc(C(=O)Nc2ccc3c(c2)Nc2ccccc2CC3)cc(OC)c1OC,5.8,/
Cc1cc2c(cc1C)-c1c(sn(-c3ccc(Cl)c(C(F)(F)F)c3)c1=S)C(C)(C)N2,-0.83,/
CN(Cc1ccccc1)C(=O)CCn1c(=O)oc2ccccc21,-0.15,0.5
Cc1cc2cc(CNC(=O)CC3CCCCC3)ccc2[nH]1,-0.095,-0.25
CCN(CC(=O)Nc1ccc(NC(C)=O)cc1)CC(=O)Nc1ccc(S(=O)(=O)N(C)C)cc1,/,-0.35
COc1ccc(CC(=O)O/N=C(\N)c2ccccc2)cc1,0.025,-0.05
C(=N\N1CCOCC1)/c1nc(-c2ccccc2)n2ccccc12,/,-0.25
COc1cc(Br)c(CN2CCCC(COC(=O)N3CC=C(n4c(=O)[nH]c5ccccc54)CC3)C2)cc1OC (stereo not given),-0.2,/
O=S(=O)(/C=C/c1ccccc1)N1CCCCC1,-0.68,-0.9
N#CCC(=O)Nc1ccc(C(=O)OCC(=O)c2cc3ccccc3o2)cc1,/,-0.35
N#C/C(=C\Nc1cc(C(F)(F)F)cc(C(F)(F)F)c1)S(=O)(=O)c1ccccc1,-0.76,-0.1
COc1cc(C(=O)Nc2ccc(-c3nc4ccc(C)cc4s3)cc2)c(Br)c(OC)c1OC,9.1,/
CCOc1ccc(Nc2oc(COc3ccccc3Cl)nc2C#N)cc1,0.75,2.2
CCC(c1nc2ccccc2c(=O)n1-c1ccccn1)N1C(=O)c2ccccc2C1=O (stereo not given),-0.82,-0.6
COc1cc(C(=O)Oc2ccc(NC3=NS(=O)(=O)c4ccccc43)cc2)cc(OC)c1OC,4.3,-1.4
C=CCn1cnc2c(c1=O)c1nc3ccccc3nc1n2-c1cccc(C)c1,0.05,2.4
CCOC(=O)NNc1nc2ccccc2n1Cc1ccccc1,/,-0.8
O=C(CN1C(=O)C2C3C=CC(C3)C2C1=O)N1CCN(c2cccc(Cl)c2)CC1 (stereo not given),0.37,/
C#CCOc1ccc(-c2ncc(S(C)(=O)=O)c(-c3cccc(C(F)(F)F)c3)n2)cc1,1.6,/
COc1ccc(/C=C/C2=CCN(Cc3ccccc3)CC2)cc1,3.4,0.35
Cc1csc(Nc2nc(N)c(C(=O)Nc3ccccc3)o2)n1,-1.4,-0.15
CCOC(=O)COc1c(Br)cc(/C=C2\SC(=O)N(C)C2=O)cc1OC,-0.03,/
CCOC(=O)c1c(C)nc(-c2ccccc2)nc1N,-0.7,1.4
O=C(CCCN1CCC(O)(c2ccc(Cl)cc2)CC1)c1ccc(F)cc1,1.3&0.24,0.2
COc1cc(CN(C)Cc2cc(=O)n3ccsc3n2)ccc1OC(F)F,/,0.2
C=CCOC(=O)C1=C(C)N(C)C(=O)NC1c1cc2c(cc1Br)OCO2 (stereo not given),-0.14,/
FC(F)(F)c1cc(Br)c2ncc(-c3ccc(Br)cc3)nc2c1,0.69,/
CC1(C)C(c2ccccc2)=[N+]([O-])C2(CCCCC2=NNC(N)=O)N1O (stereo not given),/,-0.9
Cc1ccc(C(=O)Nc2ccc(S(=O)(=O)N3CCCCC3c3cccnc3)cc2)cc1 (stereo not given),-0.1,-0.65
CC1CCC(Nc2nnnn2-c2ccccc2)CC1 (stereo not given),/,1.9
S=C(NCCCN1CCOCC1)N(Cc1ccccc1)Cc1ccccc1,-0.14,-0.85
CCOc1ccc(-c2[nH]nc3c2C(c2ccc(OC)c(OC)c2)C(C#N)=C(N)O3)c(OCC)c1 (stereo not given),-0.28,/

# Entries of single compounds, quoted from the list.
# CC1CCC(Nc2nnnn2-c2ccccc2)CC1 (stereo not given) as listed: Ba CapD inh = /; AID504770 = 1.9
# O=C(CCCN1CCC(O)(c2ccc(Cl)cc2)CC1)c1ccc(F)cc1 as listed: Ba CapD inh = 1.3&0.24; AID504770 = 0.2
# Cc1csc(Nc2nc(N)c(C(=O)Nc3ccccc3)o2)n1 as listed: Ba CapD inh = -1.4; AID504770 = -0.15

# (cont.)
SMILES,Ba CapD inh,AID504770
COc1cccc(/C=N/NC(=O)c2ccccc2O)c1,/,-0.05
CC(C)CNC(=O)c1cc(S(=O)(=O)N2CCCC2)c(Cl)cc1N1CCCC1,-0.06,-0.35
Cc1cccc2c1CC(C)(C)N/C2=C/C(N)=O,-1.2,/
CC1(C)CC(=O)c2cc3c(N)c(C(N)=O)sc3nc2C1,-0.06,0.65
NNC(=O)CNC(=O)c1ccco1,-0.88,0.1
CN(C)c1cc(C(=O)N2CCNCC2)nc(N(C)C)n1,0.4,/
CC(C)NS(=O)(=O)c1ccc2nc(NC(=O)c3cccnc3)sc2c1,/,-0.55
NS(=O)(=O)c1ccc(CCNC(=O)CSc2nc3ccccc3c(=O)n2Cc2ccc3c(c2)OCO3)cc1,-0.27,/
CC(C)=N/N=C1\NC(=O)C(Cc2ccccc2)S1 (stereo not given),0.26,-0.45
O=C(c1ccco1)N1CCN(C(=O)c2cccc3c2C(=O)N(Cc2cccnc2)C3)CC1,0.02,0
CC(C)c1ccc(Cn2cnc3ccccc32)cc1,/,-0.25
O=C(Nc1ccc2sccc2c1)c1cccc(N2C(=O)CCC2=O)c1,-0.21,-0.75
CCOc1ccccc1NC(=O)COC(=O)Cc1c(Cl)cccc1Cl,-1,0.15
O=C(Nc1ccc2c(c1)Cc1ccccc1-2)c1ccc(Br)o1,/,-0.1
CN1CC2(C(=O)c3ccccc3)CN(C)CC(C(=O)c3ccccc3)(C1)C2,-0.38,0.15
CC(C)CCNC(=O)c1cc2c(=O)oc3ccccc3c2s1,61,/
Cc1[nH]c(=S)n(CC(C)C)c1C,/,0.95
CC1=CC(=O)OC(c2ccccc2)C1 (stereo not given),0.41,-0.1
COC(=O)c1ccc(-c2ccco2)n1CC(=O)N1CCc2ccccc2C1,3.7,1.6
Cc1nc(N=C(N)N)nc2ccccc12,3.6,1.8
O=C(CSc1ncnc2ccccc12)NCc1ccc2c(c1)OCO2,-0.32,0.5
CC(C)(C)C(=O)CSc1nnc2sc3ccccc3n12,/,-0.1
CCOc1ccc(-c2csc(/C(C#N)=C/Nc3ccc4c(c3)OCO4)n2)cc1,0.11,-0.25
COc1ccc(-c2nc(N3CCC(C)CC3)c3ccccc3n2)cc1OC,0.21,/
CCC(O)c1nc2ccccc2n1CC (stereo not given),-1.8,1.9
COC(=O)C1=C(C)OC(N)=C(C#N)C12C(=O)Nc1ccc(Br)cc12 (stereo not given),-0.4,/
Cc1c([N+](=O)[O-])c(C)c2c(=O)cc(C(F)(F)C(F)(F)C(F)(F)C(F)F)oc2c1[N+](=O)[O-],-0.57,/
CCN(C(=O)c1cc2c(=O)n3cccc(C)c3nc2s1)c1ccc(OC)cc1,0.23,-0.6
O=C(c1ccccc1)c1cc(Br)ccc1NC(=O)c1sc2ccccc2c1Cl,-0.32,/
O=C1NC(=S)NC(=O)C1=Cc1ccc(Sc2nc3ccccc3s2)c([N+](=O)[O-])c1,-0.52,/
CCC1=NN(C(=O)c2cccnc2)C(O)(c2ccc(Br)cc2)C1 (stereo not given),-1.1,/
N#C/C(=C/c1ccc(-c2cccc(C(F)(F)F)c2)o1)C(=O)N1CCOCC1,/,-0.5
CCN(CC)S(=O)(=O)c1ccc(/C=C/C(=O)N(c2ccccn2)C2CCCCC2)cc1,/,1
CN(C)S(=O)(=O)c1cccc(C(=O)Nc2ccccc2)c1,1.2,1.1
O=C(C1CCCN(Cc2cccc(Cl)c2)C1)N1CCCCCC1 (stereo not given),3.2,-0.65
COc1ccc(CNC(=O)C(NC(C)=O)C(=O)Nc2ccc(OC)cc2)cc1 (stereo not given),-0.43,/
Cc1nc2cc(-c3ccc(Br)cc3)[nH]n2c(=O)c1Cl,/,0.45
NC(=O)CCSC(=S)N1CCOCC1,0.12,-0.8
COc1ccc(OC)c(-n2cnc3cc(C(=O)NCCCN4CCOCC4)ccc32)c1,0.17,/
COC(=O)c1cc(Nc2cc(C)nc3ncnn23)cc(C(=O)OC)c1,3.1,-1.8
COc1ccc(CNC(=O)c2cccs2)cc1,-0.095,-0.95
CCN(CC)C(=S)Nc1cccc(SC)c1,0.47,/
NC(C(=O)O)C(C(F)(F)F)C(F)(F)F (stereo not given),0.6,-0.4
O=C(CSc1nc2ccccc2n1S(=O)(=O)c1ccccc1)c1ccc(Cl)cc1,0.18,/
CC(C)(C)OC(=O)N1CC(O)CC1C(=O)N1CCOCC1 (stereo not given),0.44,0.1
CCOC(=O)c1ccc(N)c(N)c1,8.4,-0.9
CC(=O)N1CCN(CC(=O)Nc2ccc(S(=O)(=O)N(C)C)cc2)CC1,/,0.3
COc1cc2c3c(c1OC)C1(C=CC(=O)C=C1)CC3[N+](C)(C)CC2 (stereo not given),-0.27,0.35
COC(C(=O)NCc1ccc2c(c1)OCO2)c1ccccc1 (stereo not given),-0.15,-0.35
Cc1ccc(C2=N/C(=C\N3CCCCC3)C(=O)O2)cc1,-1.9,0.55
Cc1ccc(C)c(N2CCN(C(=O)CN(C)S(=O)(=O)c3ccc4[nH]c(=O)oc4c3)CC2)c1,0.73,-0.4
CSc1nnc(-c2cc3c(C(F)(F)F)nn(C)c3s2)n1-c1ccccc1,6.2,/
COC(=O)c1cnc(N)nc1C(F)(F)F,4.3,-1.1
C=CCN=c1scc(-c2ccco2)n1/N=C/C1=CCC2CC1C2(C)C (stereo not given),/,-1.4
COC(=O)c1cccc2c1-c1ccccc1/C2=N/O,-0.42,0.1
O=C(Nc1ccccn1)c1nc(-c2ccccc2)oc1C(F)(F)F,0.66,/
N#CC1(C#N)[C@H](c2ccc(Br)cc2)[C@@H](C(=O)C23CC4CC(CC(C4)C2)C3)N2c3ccccc3C=C[C@@H]21,1.3,/
COc1ccc(CCNC(=O)CCn2c(SCc3ccc([N+](=O)[O-])cc3)nc3ccccc3c2=O)cc1OC,0.7,/
CN(C)c1ccc(/C=C(\C#N)S(=O)(=O)c2ccc(Cl)cc2)c(F)c1C#N,0.39,-0.05
CC1CN(c2ccc([N+](=O)[O-])cc2)CC(C)O1 (stereo not given),-1.4,/

# (cont.)
SMILES,Ba CapD inh,AID504770
CN1CC(C#N)=C(NC2CCCCC2)C1=O,0.16,-1.1
CCC1C(C#N)=C(SC)NC2=C1C(=O)CC(C)(C)C2 (stereo not given),4.2,-0.6
CS(=O)(=O)N(Cc1ccccc1)Cc1ccc2c(c1)OCO2,-0.1,/
O=C(CN1CCN(S(=O)(=O)Cc2ccccc2)CC1)Nc1ccc2[nH]c(=O)[nH]c2c1,/,1.3
CCOc1ccc(OCc2ccc(C(=O)NN)o2)cc1,-0.52,-0.55
CCCn1c(=O)n(C)c(=O)c2c(SCc3cccc(S(=O)(=O)N(C)C)c3)nc(C(C)C)nc21,/,1.4
COc1ccc(N2C3=[N+](CCCC3)CC2(C)O)cc1 (stereo not given),-0.04,-0.5
COc1cccc(-c2nc(-c3cccc(OC)c3)c(-c3cccc(OC)c3)[nH]2)c1,42,/
CN(Cc1ccccc1)c1nnc(NC(=O)NC2CCCC2)s1,0.52,1.3
CCOC(=O)C1Cn2c(nc3c(c2=O)C2(CCCC2)Cc2ccccc2-3)S1 (stereo not given),14,/
c1ccc(OCCN2CCN(c3ccccc3)CC2)cc1,0.87,-0.25
Cc1nnc(SCc2ccccc2)[nH]c1=O,/,2&0.2
COC(CNC(=O)c1ccc(/C=C2\Oc3ccccc3NC2=O)cc1)OC,48,0.45
Cc1ccccc1Nc1nn2c(=O)c3ccc(C(=O)NCc4ccccc4Cl)cc3nc2s1,6.8,1.9
CCOc1cc(/C=N\NC(=O)OC)ccc1OC(=O)c1ccco1,0.56,-0.15
O=c1[nH]c2cc3ccccc3cc2nc1-c1ccccc1NCc1ccc(F)cc1,3,/

# Six records picked at random from those above, as already listed:
SMILES,Ba CapD inh,AID504770
CS(=O)(=O)N(Cc1ccccc1)Cc1ccc2c(c1)OCO2,-0.1,/
CN1CC(C#N)=C(NC2CCCCC2)C1=O,0.16,-1.1
O=C(CN1CCN(S(=O)(=O)Cc2ccccc2)CC1)Nc1ccc2[nH]c(=O)[nH]c2c1,/,1.3
CCOC(=O)C1Cn2c(nc3c(c2=O)C2(CCCC2)Cc2ccccc2-3)S1 (stereo not given),14,/
O=c1[nH]c2cc3ccccc3cc2nc1-c1ccccc1NCc1ccc(F)cc1,3,/
CN(Cc1ccccc1)c1nnc(NC(=O)NC2CCCC2)s1,0.52,1.3
